# Screening results as filed in PubChem.
# Ba CapD inh – blocks the Bacillus anthracis CapD enzyme; purified CapD enzyme, fluorescence intensity read-out; stronger effect = lower value; some hits fall short of the stated cut; z-score (no concentration beside the values); 0.23% of 140,000 active;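 active = z-score under -4 in either of two replicates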;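 also: stock transfer was 100 nL into about 40 µL; score is relative to mean and spread of the plate; one replicate is shown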
# AID504770 – E. coli YBA685 growth inhibition, screen for V. cholerae RctB inhibitors | E. coli YBA685 rctB-dependent plasmid, OD600 growth, 3 h; stronger effect = lower value | 0.27% of 130,000 active | z-score (concentration not given with the values) | AID 504770;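 active = z-score under -2 on both plates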;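 also: wells of about 30 µL received 100 nL stock; score is relative to mean and SD of the test wells; the first replicate is given; strong numbers were not always called active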
# Starred values were filed as active, the others as inactive; x = no result given; & = joins results of further samples. Compounds were not picked by outcome. About 0.37% of those tested had a hit in this group.
molecule | Ba CapD inh | AID504770
Cc1cc(=O)oc2c1c(C)nn2-c1ccc(Cl)cc1 | 0.07 | x
O=c1[nH]c2ccccc2n1CCCN1CCC(n2c(=O)[nH]c3cc(Cl)ccc32)CC1 | x | -1.15
CN(C(=O)COC(=O)c1ccc(I)cc1)c1ccccc1 | 1.06 | 0.55
NC(=O)c1ccc(C(F)(F)F)n(Cc2cccc(C(F)(F)F)c2)c1=O | -0.23 | x
CSC1=NN1c1cc(C)nc(N)n1 | -0.02 | 0.35
CC1=C(C(=O)Nc2ccccc2)C(c2cccc(Br)c2)n2nnnc2N1 (stereo not given) | -0.02 | x
CCOC(=O)C1CCN(/C=C(\C#N)S(=O)(=O)C(C)(C)C)CC1 | -1.21 | -0.1
CSC1=NCN(C(C)(C)C)CN1 | -0.15 | x
COc1ccccc1NC(=O)c1cnc(Nc2ccc(C)c(Cl)c2)c2ccccc12 | 1.13 | x
Cc1cc(C)nc(SCc2nc(OCC(F)(F)F)cc(OCC(F)(F)F)n2)n1 | -0.285 | x
CCOC(=O)c1c(NC(=O)CSc2nnnn2C)sc(C(=O)N(C)C)c1C | x | -0.1
CCOC(=O)COc1cc2c3c(c(=O)oc2cc1C)CCCC3 | 3.6 | 0.25
CSc1cccc(N/C=C/c2onc(-c3ccccc3Cl)c2C#N)c1 | 1.52 | x
CC1=NN(c2ccc(C(=O)O)cc2)C(=O)CC1 | x | 1.55
OCCNC(=S)NC1CC1 | 0.925 | -0.55
COc1ccc(-c2cc(C(F)(F)F)nc(NC3CCCC3)n2)cc1 | 43.8 | 0.55
N#Cc1ccc(C(=O)OC2CCCC2)cc1 | -0.075 | 0.25
COc1ccccc1CNN | x | -0.6
COC(=O)CCS(=O)(=O)c1ccc(C)cc1 | 0.13 | -0.3
O=C(O)CCC(=O)Nc1ccc(C(=O)OC2CCCCC2)cc1 | -0.085 | 0
CN1c2ccccc2C(C)(C)C12C=Cc1cc(C(=O)c3ccccc3)ccc1O2 (stereo not given) | 0.095 | x
C=CCNc1nc(-c2cc(C)n(C3CC3)c2C)cs1 | x | 0.65
O=C(CCc1ccc(O)cc1)N/N=C/C=C/c1ccccc1 | -1.11 | x
Cc1cc(Cl)ccc1Nc1nnns1 | -0.35 | x
O=c1[nH]c2ccc(Cl)cc2c(-c2ccccc2)c1NS(=O)(=O)c1ccccc1 | 1.02 | -0.85
COc1cc(C=Nc2c(C)n(C)n(-c3ccccc3)c2=O)cc(OC)c1OC | -0.145 | x
O=C(NNC(=O)C1CCN(c2ccc(C(F)(F)F)cn2)CC1)c1ccco1 | 9.77 | x
Cc1ccc(Cn2cnc3cc(C)c(C)cc32)cc1 | -0.925 | -1.6
Cn1c(=O)n(CCCOc2ccc(Cl)cc2)c2ccccc21 | 0.075 | -0.65
O=C(NC12CC3CC(CC(C3)C1)C2)/C(=C/c1cccs1)c1ccccc1 | -0.995 | x
Cc1ccc(CN2CCN(c3cccc4[nH]ccc34)CC2)cc1 | 0.355 | -1.55
Cn1cccc/c1=N/c1cccc[n+]1C | 0.28 | 0.05
CC1=CCC2(C(=O)OC(C)(C)OC2=O)C(c2ccc(Br)cc2)C1 (stereo not given) | 1.56 | 0.1
Cn1c(SC/C(O)=C(\C#N)c2nc3ccccc3[nH]2)nc2ccccc21 | x | 2.05
CC1CCCCC1NC(=O)c1cc(-c2cccs2)nc2ccccc12 (stereo not given) | 12.6 | -0.55
N#CC1=C(N)Nc2c(c(=O)oc3ccccc23)C1c1ccc(Br)cc1 (stereo not given) | 1.18 | 0.2
FC(F)(F)c1cnc(N2CCN(c3cccc(Cl)n3)CC2)c(Cl)c1 | -0.815 | x
O=C1CN(CC(=O)NC2CCCc3ccccc32)CCN1 (stereo not given) | x | -0.2
CCOc1ccc2[nH]c(=O)c(CN(C(=S)NCc3ccco3)C3CCCC3)cc2c1 | x | 1.5
Cc1c(C#N)c(-n2cccc2)n(Cc2cccs2)c1C | 0.44 | 0
CCOC(=O)C1=C(C)N=c2s/c(=C\c3cc(OC)c(OC)c(OC)c3)c(=O)n2C1c1ccccc1OC (stereo not given) | -0.565 | x
Cc1ccc(S(=O)(=O)NC(=O)N2CCOCC2)cc1 | 0.55 | x
O=C1c2cc(S(=O)(=O)N3CCCCCC3)cc([N+](=O)[O-])c2-c2c1cc(S(=O)(=O)N1CCCCCC1)cc2[N+](=O)[O-] | 0.175 | x
CCCc1cc(=O)oc2cc(OC(C)=O)ccc12 | 8.5 | 0.1
O=C(NCc1ccccc1Br)OCCN1CCN(Cc2cc3ccccc3o2)CC1 | 0.285 | x
CC(C)C(=O)NCCN1CCOCC1 | x | 0.25
Cc1cc2c(cc1C)NC(CC(N)=O)C(=O)N2 (stereo not given) | x | -0.9
CN1CCN(Cc2c(O)ccc3c(=O)c(Oc4ccccc4Cl)c(C(F)(F)F)oc23)CC1 | -1.04 | -2.55
COc1c(Br)cc([N+](=O)[O-])cc1Br | 0.525 | x
CC1CN/C(=C/C(=O)c2ccc(Br)cc2)C(=O)N1 (stereo not given) | -0.1 | -0.85
COC(=O)c1c(C)oc2ccc(N(C(=O)c3ccncc3)S(=O)(=O)c3ccc4ccccc4c3)cc12 | -0.17 | x
C/C(N)=C(/C#N)C(=O)Cn1ncc(Cl)c(Cl)c1=O | x | -0.05
CC1CN(C(=O)c2cc(-c3ccccc3)nc3ccccc23)CC(C)O1 (stereo not given) | -0.09 | 1.7
CCOC(=O)c1cc(NC(=O)c2ccc(Cl)cc2)c(=O)oc1-c1ccccc1 | -0.695 | x
CC(NC(=O)CN(C)Cc1cccc(F)c1)c1ccccc1 (stereo not given) | x | 0
Cc1cc(C(=O)N2CCCC2C(=O)O)c(C)o1 (stereo not given) | -0.06 | 0.95
CCc1ccc(S(=O)(=O)N(C(=O)c2ccccc2Cl)c2ccc3oc(C)c(C(C)=O)c3c2)cc1 | -0.245 | x
CCOc1ccc(C2C(N3C(=O)c4ccccc4C3=O)C(=O)N2c2cc(Cl)cc(Cl)c2)cc1 (stereo not given) | -0.145 | x
COc1ccc2nc(NC(=O)CSc3nc4ccc(C)cc4[nH]3)sc2c1 | 0.48 | x
N=C1C(c2nc3ccccc3s2)=C(O)CN1/N=C1\C(=O)Nc2ccccc21 | x | 0.75

# Carrying on.
molecule | Ba CapD inh | AID504770
O=c1c2ccccc2n(Cc2ccc(Cl)cc2)c(=O)n1Cc1ccc(Cl)cc1 | 3.4 | 1.25
COc1ccc2nc3c(nc2c1)-c1cccc2cccc-3c12 | 3.32 | -0.2
Cc1nn2c(C(C)Oc3ccc(Cl)cc3Cl)ccnc2c1Cl (stereo not given) | 0.71 | x
Nc1nnc(SCC(=O)n2c3c(c4ccccc42)CCCC3)s1 | -0.175 | x
CC1Cn2cc(C(=O)N3CCCc4ccccc43)c(=O)c3c(Cl)ccc(c32)O1 (stereo not given) | 3.06 | 0.95
CC(C)C(=O)Nc1ccccc1-c1nc2ccccc2[nH]c1=O | x | -0.7
Cc1onc(-c2c(Cl)cccc2Cl)c1C(=O)NNc1c(Cl)cncc1Cl | -0.19 | x
CNC(=O)c1ccc2nc(N3CCC(C)CC3)sc2c1 | -0.225 | -0.55
c1ccc2c(c1)CCN2c1nn2nnnc2c2ccccc12 | -1.13 | -1.5
O=C(NC1CCCCCCC1)c1ccc(N2CCCC2=O)cc1 | 0.705 | 0.15
COC(=O)C1Cc2c([nH]c3ccccc23)C2(CCN(Cc3ccccc3)CC2)N1 (stereo not given) | 0.53 | x
NC(=O)C1CCN(C(=O)CC(c2ccccc2)(c2ccccc2)c2ccccc2)CC1 | -0.01 | x
O=C(CN1CCc2ccccc21)NN1CC(=O)N(c2ccccc2)CC1=O | 0.15 | 0.1
COc1cc(/C=C\C(=O)Nn2c(-c3cccc(Cl)c3)nc3ccccc3c2=O)cc(OC)c1OC | 1.95 | x
Cc1ccc2c(c1)N(CCC(=O)NC1CCC(C)CC1)C(=O)CO2 (stereo not given) | 0.41 | -0.75
Cc1ccsc1/C=N/NC(=O)c1sccc1OCc1ccc(F)cc1 | -0.305 | x
O=C1C(=O)N(Cc2ccc(Cl)cc2Cl)c2ccc([N+](=O)[O-])cc21 | -2.3 | x
COC(=O)c1cccn1-c1ccccc1[N+](=O)[O-] | 0.24 | x
O=S(=O)(c1ccccc1)N1CCN(c2ccccc2)CC1 | -0.21 | 0.25
Cc1ccc(NCCC(=O)O)cc1 | 0.93 | -0.3
O=C(Nc1cccc(Cl)c1)N1CCN(CCc2ccccc2)CC1 | -0.17 | -0.4
O=c1cc(CN2CCCC2)nc(-c2cc(C(F)(F)F)cc(C(F)(F)F)c2)[nH]1 | 0.405 | -0.3
COc1cc(OC)nc(OC(Cc2cnccn2)c2cccc(C(F)(F)F)c2)n1 (stereo not given) | -0.42 | x
N#CC(C#N)CC(=O)c1ccc(Cl)cc1 | 16.8 | -0.9
O=C(COc1ncn(-c2ccccc2)n1)N/N=C/c1cccc(Oc2ccccc2)c1 | -0.5 | x
Cc1cc(/C=C(\C#N)C(=O)OCN2C(=O)c3ccccc3C2=O)c(C)n1CC(C)C | x | -0.05
CN(C(=O)CSc1nc2ccccc2c(=O)n1C)c1ccccc1 | -0.165 | -0.3
CC(=O)c1ccc(N2CCN(S(=O)(=O)c3cccc(F)c3)CC2)cc1 | 0.79 | x
O=C(Nc1ccc([N+](=O)[O-])cc1)c1cc(-c2ccccc2)nc2ccccc12 | -0.46 | x
CCCc1ncc(C[n+]2ccccc2C)c(N)n1 | 6.5&2.44 | 0.4

# Compound profiles, as listed above. Screens in order: Ba CapD inh, AID504770
# Results for O=C(NC1CCCCCCC1)c1ccc(N2CCCC2=O)cc1 : 0.705, 0.15
# Results for O=C1C(=O)N(Cc2ccc(Cl)cc2Cl)c2ccc([N+](=O)[O-])cc21 : -2.3, x
# Results for O=c1cc(CN2CCCC2)nc(-c2cc(C(F)(F)F)cc(C(F)(F)F)c2)[nH]1 : 0.405, -0.3
# Results for CC1Cn2cc(C(=O)N3CCCc4ccccc43)c(=O)c3c(Cl)ccc(c32)O1 (stereo not given) : 3.06, 0.95
# Results for Cc1ccc2c(c1)N(CCC(=O)NC1CCC(C)CC1)C(=O)CO2 (stereo not given) : 0.41, -0.75

# Going on with the list:
molecule | Ba CapD inh | AID504770
CCc1ccc(Nc2ncnc3nc[nH]c23)cc1 | x | -0.25
O=C(NC(=O)c1c(F)cccc1F)O/N=C1\CCCc2occc21 | 1.31 | 0.5
Cc1cc2nc3c(c(C(F)(F)F)n2n1)CCc1ccccc1-3 | -0.53 | -0.3
FC(F)(F)COc1nc(OCC(F)(F)F)nc(OCC(F)(F)F)n1 | x | -0.15
CCOC(=O)NC(=S)Nc1cccc(C)n1 | -0.075 | 0
Clc1ccc2c(c1)NC(c1ccc(Cl)c(Cl)c1)O2 (stereo not given) | 0.07 | x
CCCc1cc(=O)[nH]c(/N=C(/NC(=O)C(C)N2C(=O)c3ccccc3C2=O)Nc2ccccc2)n1 (stereo not given) | 0.69 | -0.1
O=c1oc2ccccc2cc1S(=O)(=O)c1ccc(F)cc1 | 1.38 | -0.5
COC(=O)Cc1cc(OC)c(OC)cc1C(C)=O | -0.84 | x
CCO/C=N/Nc1nc(C(F)(F)F)nc2c1cnn2-c1ccccc1 | x | -0.3
COc1ccc(C2C(C#N)=C(N)N3CCc4cc(OC)c(OC)cc4C3=C2C#N)cc1 (stereo not given) | -0.01 | -0.1
C=CCn1c(SCC(N)=O)nnc1-c1ccc(OC)c(OC)c1 | 0.63 | -0.05
O=C(COc1ccccc1)Nc1cccc(-c2nnc(-c3ccco3)o2)c1 | 20.8 | -0.95
C#CC(C)OC1(c2ccccc2)OC(=O)c2ccccc21 (stereo not given) | 0.035 | x
N#Cc1c(Cl)cccc1N1CCSCC1 | 4.38 | -0.7
O=C(Nc1ccc(F)cc1F)c1ccc(COc2c(F)c(F)cc(F)c2F)o1 | -0.125 | 1.9
CC1=C(C#N)C(c2cccnc2)C2=C(N1)c1ccccc1C2=O (stereo not given) | x | -0.1
COC(=O)c1cc2sccc2n1C(C)C(=O)Nc1cc(Cl)ccc1C (stereo not given) | 0.845 | -0.1
COc1cccc(-c2nc3ccccc3c(=O)n2NC(=O)Cn2nc(C(F)(F)F)c(Br)c2C)c1 | 0.185 | x
COc1ccc(C(=O)Nc2ccc(S(=O)(=O)N3CCCCC3C)cc2)c(OC)c1OC (stereo not given) | 0.13 | -0.4
O=C(c1cc2cccc3c2n(c1=O)CC3)N1CCc2ccccc2C1 | 17.4 | x
CC1C/C(=N\O)c2cc(Cl)ccc2S1(=O)=O (stereo not given) | -0.055 | 0.65
CCOC(=O)c1sc2nc(CC(=O)OC)nc(NCCCOC)c2c1C | 51.1 | x
CCC1CCCCN1C(=O)c1cc(-c2ccc(F)cc2)on1 (stereo not given) | -0.92 | -0.75
COc1nc(N)nc(C2CC2)n1 | -0.055 | 0.6
O=C(c1ccc(C(F)(F)F)cc1)c1c[nH]c(C(=O)C(Cl)(Cl)Cl)c1 | -1.13 | x
CCN(CC(=O)Nc1ccc2c(c1)OCCO2)Cc1cc(=O)oc2cc(C)c(C)cc12 | x | -0.4
NC(=O)COC(=O)c1cc(-c2ccccc2)nc2ccccc12 | 1.69 | 0.35
Cc1ccc(C(=O)OCC(=O)N2CCCC2)s1 | -1.15 | -0.8
CCOc1ccc(N2C(=O)C(N3C(=O)c4ccccc4C3=O)C2c2cc(OC)c(OC)c(OC)c2)cc1 (stereo not given) | 0.105 | x
Cc1oc(-c2ccccc2)nc1C(=O)Nc1ccccc1C(=O)NC1CC1 | x | -0.65
c1ccc(-c2nsc(-n3ccc(-c4cccs4)n3)n2)cc1 | 1.5 | x
CCn1cc(C(CC(=O)O)C(=O)O)c2ccccc21 (stereo not given) | 0.16 | 1.05
COc1cc(S(=O)(=O)N2CCN(c3cc(C)ccc3C)CC2)c(OC)cc1Cl | -0.035 | 0.15
O=C(CSc1nnc(OC(=O)c2cccs2)n1C1CC1)c1ccc2c(c1)OCCO2 | 0.585 | 1.65
